rRNA inh HTS: reduced GFP signal of wild-type E. coli, primary screen, bacterial rRNA inhibitor project, GFP/RFP fluorescence, OD600, single point. E. coli WT GFP vs humanized-ribosome RFP mutants, 24 h; active compounds read low; DMSO median 0, no signal -100. GFP signal change (wild-type ribosome), % (no concentration beside the values). hit rate 1.6% among 350,000. AID 720706, 2013;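 active = significant combined selectivity score with lowered wild-type GFP, culture density cut under 30%, mutant RFP and density less affected; inactive = any of these conditions unmet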; also: one replicate is shown; some compounds called inactive have numbers as strong as hits
rRNA inh HTS OD600: further read-out of rRNA inh HTS, marked with its call; OD600 change, %; measured here: OD600 growth;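 optical density of the mix in the first replicate; 0 = DMSO median and -100 = no signal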
rRNA inh HTS RFP: also measured in rRNA inh HTS; calls as there; RFP signal change, %; measured here: RFP humanized mutant strains;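 first replicate; 0 = DMSO median and -100 = no signal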
* = called active by the depositor; & = joins results of further samples. These rows are one share of the data. The share of hits here may be higher or lower than overall.

The opening four compounds, ahead of the listing:
rRNA inh HTS	rRNA inh HTS OD600	rRNA inh HTS RFP	smiles
4.1	11.2	-4.2	O=C1CCCn2cc(nn2)COC[C@@H](Cc2ccccc2)N1
0.1	-9.8	4.0	C[C@@H]1CN([C@@H](C)CO)C(=O)Cc2cc(NC(=O)Cc3ccccc3)ccc2O[C@@H]1CN(C)S(=O)(=O)c1ccc(Cl)cc1
3.3	3.1	-3.4	O=C(C1CCCC1)N1CC2(C1)[C@H](c1ccccc1)[C@H](CO)N2C(=O)c1cccnc1
-1.5	3.3	-2.6	C[C@H](CO)N1C[C@H](C)[C@H](CN(C)Cc2ccc3c(c2)OCO3)Oc2c(NS(=O)(=O)c3ccccc3)cccc2C1=O

Results, from the first entry:
rRNA inh HTS	rRNA inh HTS OD600	rRNA inh HTS RFP	smiles
4.1	11.2	-4.2	O=C1CCCn2cc(nn2)COC[C@@H](Cc2ccccc2)N1
0.1	-9.8	4.0	C[C@@H]1CN([C@@H](C)CO)C(=O)Cc2cc(NC(=O)Cc3ccccc3)ccc2O[C@@H]1CN(C)S(=O)(=O)c1ccc(Cl)cc1
3.3	3.1	-3.4	O=C(C1CCCC1)N1CC2(C1)[C@H](c1ccccc1)[C@H](CO)N2C(=O)c1cccnc1
-1.5	3.3	-2.6	C[C@H](CO)N1C[C@H](C)[C@H](CN(C)Cc2ccc3c(c2)OCO3)Oc2c(NS(=O)(=O)c3ccccc3)cccc2C1=O
-1.8	-3.1	-1.1	COc1ccccc1C(=O)Nc1ccc2c(c1)C(=O)N(C)C[C@H](OC)[C@H](C)CN(CC1CC1)[C@H](C)CO2
-1.4	1.4	-3.3	COc1ccc(NC(=O)N(C)C[C@H]2OCCCC[C@@H](C)Oc3ccc(NS(=O)(=O)c4ccc(F)cc4)cc3C(=O)N([C@H](C)CO)C[C@@H]2C)cc1
4.2	3.8	1.5	CN1C[C@H](O)COC[C@H]2O[C@@H](CC(=O)NC3CCC3)CC[C@@H]21
4.0	11.5	0.5	O=C(c1ccccn1)N1C[C@H]2[C@@H](c3ccccc31)[C@H](CO)N2C(=O)C1CC1
9.9	11.8	0.2	CCCS(=O)(=O)NC(=O)C1(C)CCN(C(=O)c2ccc(C(F)(F)F)cc2)C1 (stereo unspecified)
2.2	-2.0	3.3	C[C@@H]1CN([C@H](C)CO)C(=O)c2cc(NC(=O)Cc3cn(C)c4ccccc34)ccc2O[C@H]1CN(C)C(=O)Nc1cccc2ccccc12
4.9&-3.1	12.3&-2.0	1.1&0.5	COC(=O)C[C@@H]1C[C@@H]2c3cc(NS(=O)(=O)c4ccc(F)cc4)ccc3O[C@@H]2[C@@H](CO)O1
3.7	6.9	-0.4	C[C@H]1CN([C@@H](C)CO)C(=O)c2cc(C3=CCCCC3)cnc2O[C@@H]1CN(C)Cc1ccc(C(=O)O)cc1
-5.7	-8.7	1.7	C[C@@H]1CN([C@H](C)CO)S(=O)(=O)c2ccc(/C=C/c3ccccc3)cc2O[C@@H]1CN(C)Cc1ccc(C(=O)O)cc1
2.1	5.9	-3.1	C[C@@H]1CN([C@H](C)CO)C(=O)c2cc(NS(C)(=O)=O)ccc2O[C@@H](C)CCCCO[C@H]1CN(C)Cc1ccncc1
-1.1	-1.4	-0.3	C[C@@H](NC(=O)C[C@H]1C=C[C@H](NC(=O)Cc2ccccn2)[C@H](CO)O1)c1ccccc1
6.2	23.6	-5.3	COc1ccc(NC(=O)N(C)C[C@@H]2Oc3ccc(NC(=O)C4CCCCC4)cc3C(=O)N([C@@H](C)CO)C[C@@H]2C)cc1
-21.3	-38.1	-10.1	CC(C)=CCN1C(=O)[C@]2(OCCC=C[C@H]2C)c2c(Br)cccc21
-6.8	-36.5	31.4	COc1cccc(C(C)(O)c2nc(-c3ccc4ccccc4c3)cs2)c1 (stereo unspecified)
-4.7	-14.0	-0.1	C[C@@H]1CN([C@@H](C)CO)S(=O)(=O)c2ccc(C#CC3CC3)cc2O[C@@H]1CN(C)C(=O)c1ccccc1
3.1	12.7	-0.3	Cn1cnc(CCNC(=O)C[C@H]2CC[C@@H]3[C@H](COC[C@H](O)CN3C(=O)Nc3ccc(F)cc3)O2)c1
-2.3	-2.5	-1.5	COc1ccc(NC(=O)N(C)C[C@H]2Oc3ccc(NC(=O)Nc4cccc5ccccc45)cc3CC(=O)N([C@H](C)CO)C[C@H]2C)cc1
-5.7	-8.9	0.0	C[C@@H]1CN([C@H](C)CO)C(=O)c2cc(NS(=O)(=O)c3ccc(Cl)cc3)ccc2O[C@H]1CN(C)Cc1ccc(C(=O)Nc2ccccc2N)cc1
4.5	1.6	-0.7	C[C@@H]1CN([C@H](C)CO)C(=O)c2cccc(NC(=O)C3CC3)c2O[C@@H]1CN(C)S(C)(=O)=O
0.7	3.5	-1.4	C[C@H]1CN([C@@H](C)CO)C(=O)CCCn2nncc2CO[C@H]1CN(C)Cc1cccc2c1OCCCO2

Reformatted as labelled records: two of the compounds above
Cn1cnc(CCNC(=O)C[C@H]2CC[C@@H]3[C@H](COC[C@H](O)CN3C(=O)Nc3ccc(F)cc3)O2)c1
- rRNA inh HTS: 3.1
- rRNA inh HTS OD600: 12.7
- rRNA inh HTS RFP: -0.3
C[C@@H]1CN([C@H](C)CO)C(=O)c2cc(NS(C)(=O)=O)ccc2O[C@@H](C)CCCCO[C@H]1CN(C)Cc1ccncc1
- rRNA inh HTS: 2.1
- rRNA inh HTS OD600: 5.9
- rRNA inh HTS RFP: -3.1

More structures follow.
rRNA inh HTS	rRNA inh HTS OD600	rRNA inh HTS RFP	smiles
0.7	3.5	-0.6	Cc1noc(C)c1S(=O)(=O)Nc1ccc2c(c1)C(=O)N([C@H](C)CO)C[C@@H](C)[C@@H](CN(C)C(=O)Nc1ccc(F)cc1)O2
-1.6	-2.8	-4.4	C=CCN(CC=C)Cc1cc(=O)oc2ccccc12
-0.3	0.7	-1.8	C[C@H](CO)N1C[C@H](C)[C@@H](CN(C)Cc2ccc(C(=O)O)cc2)OCCCC[C@H](C)Oc2ccc(NC(=O)NC3CCCCC3)cc2C1=O
-2.1	-7.7	-0.9	COc1ccc(S(=O)(=O)Nc2ccc3c(c2)C(=O)N([C@H](C)CO)C[C@H](C)[C@H](CN(C)C(=O)Nc2cccc4ccccc24)OCCCC[C@H](C)O3)cc1
3.4	16.9	-2.9	Cc1ccccc1S(=O)(=O)N1CC(=O)N2[C@H](CO)[C@H](c3ccc(C#CCC4CCCC4)cc3)[C@H]2C1
-1.7	2.2	-2.2	C[C@H](CO)N1C[C@H](C)[C@H](CN(C)S(=O)(=O)c2ccc(F)cc2)Oc2ncc(C#CC(C)(C)O)cc2C1=O
-5.8	10.1	-1.3	Cc1noc(C)c1S(=O)(=O)Nc1ccc2c(c1)C(=O)N([C@@H](C)CO)C[C@H](C)[C@H](CN(C)Cc1ccncc1)O2
-4.2	-9.7	0.5	Cc1noc(C)c1S(=O)(=O)Nc1ccc2c(c1)C(=O)N([C@H](C)CO)C[C@@H](C)[C@H](CN(C)S(=O)(=O)c1ccccc1)OCCCC[C@@H](C)O2
4.8	13.6	-0.2	COC(=O)c1cc2c(c3c4cc(F)ccc4n(S(=O)(=O)c4ccccc4)c13)C(=O)N(Cc1ccc(C(F)(F)F)cc1)C2
-23.9	-50.6	-6.3	O=C1NC(=O)C(=CC=Cc2ccccc2)S1
7.6	23.2	16.9	O=C(C[C@@H]1C[C@H]2c3cc(NC(=O)NC4CCCC4)ccc3O[C@H]2[C@H](CO)O1)NCc1ccc(-c2ccccc2)cc1
-3.1	-8.9	-0.4	O=C1CC(=O)N(C2CCCCC2)C(=O)N1c1ccccc1S(=O)(=O)Oc1ccccc1
8.1	12.6	-2.4	O=NN(Cc1cccnc1)Cc1cccnc1
0.7	3.9	-2.0	C[C@H]1CCCCO[C@@H](CN(C)C(=O)CCCN(C)C)[C@@H](C)CN([C@@H](C)CO)C(=O)c2cc(NS(=O)(=O)c3ccc(F)cc3)ccc2O1
-4.9	-9.5	0.7	C[C@@H]1CN([C@@H](C)CO)C(=O)c2cc(NS(=O)(=O)c3cccs3)ccc2O[C@H]1CN(C)S(=O)(=O)c1ccccc1
8.1	4.6	0.0	C[C@H]1CN([C@@H](C)CO)C(=O)Cc2cc(NC(=O)Nc3ccccc3)ccc2O[C@@H]1CN(C)Cc1ccc(Cl)c(Cl)c1
10.6	13.4	-0.9	N#Cc1cccc(OC(=O)C2CCN(C(=O)c3ccc(F)cc3)CC2)c1
2.0	9.3	-1.8	C[C@@H]1CN([C@H](C)CO)C(=O)Cc2cc(NC(=O)CCCCCC(=O)Nc3ccccc3N)ccc2O[C@@H]1CN(C)CC1CC1
-0.6	-4.5	-1.7	C[C@H](CO)N1C[C@H](C)[C@@H](CN(C)Cc2ccccn2)Oc2cc(C#C[C@@H](C)O)ccc2S1(=O)=O
-1.2	0.8	-2.0	COc1ccc(NC(=O)N[C@@H]2CC[C@H](CCNC(=O)CN3CCOCC3)O[C@H]2CO)cc1
-60.2	-72.8	-19.6	OC[C@@H]1[C@@H](c2ccc(C#Cc3ccccc3)cc2)[C@@H]2CN(Cc3ccccn3)CCCCN12
5.1	6.7	-0.5	CCCNC(=O)N1CC2(C1)CN(C(C)=O)[C@H](CO)c1[nH]c3cc(OC)ccc3c12
0.5	3.6	0.7	CCCCNC(=O)C1(C)CCCCN1C(=O)c1cccs1 (stereo unspecified)
1.5	-2.2	-2.2	COc1ccc(C(=O)Nc2ccc3c(c2)C(=O)N(C)C[C@H](OC)[C@@H](C)CN(C(C)=O)[C@@H](C)CO3)cc1
-5.9	-2.9	-0.6	CN(C)C(=O)c1ccc(-c2ccc3c(c2)[C@@H]2[C@@H](CCN2S(=O)(=O)c2ccccc2)[C@@H](CO)N3)cc1
2.0	6.9	-1.0	Cc1cccc(-c2ccc([C@@H]3[C@@H]4CN(C(=O)CN(C)C)C[C@H]3N4)cc2)c1
17.2	9.6	1.2	CCN(CC)CCN1CNC(=S)NC1
-0.7	1.0	-4.4	CCCNC(=O)N(C)C[C@@H]1Oc2ncc(C3=CCCCC3)cc2C(=O)N([C@H](C)CO)C[C@H]1C
3.9	20.4	-2.1	CNC[C@H]1Oc2ccc(NS(=O)(=O)c3cn(C)cn3)cc2C(=O)N([C@H](C)CO)C[C@H]1C
-1.7	-4.2	-0.5	CC(C)CC#Cc1ccc2c(c1)O[C@@H](CN(C)S(=O)(=O)c1cccc(F)c1)[C@@H](C)CN([C@H](C)CO)S2(=O)=O
-1.3	-6.8	-0.7	C[C@H](O)C#Cc1ccc2c(c1)O[C@@H](CN(C)C(=O)C1CCCCC1)[C@H](C)CN([C@@H](C)CO)S2(=O)=O
2.3	0.7	-0.8	C[C@@H]1CN([C@H](C)CO)C(=O)Cc2cc(NC(=O)Cc3ccccc3)ccc2O[C@@H]1CN(C)C(=O)Nc1ccc(F)cc1
3.1	0.4	-1.0	CNC[C@@H]1Oc2ccc(NS(=O)(=O)c3ccccc3)cc2C(=O)N([C@@H](C)CO)C[C@@H]1C
-6.4	2.6	0.9	O=C(Nc1ccccc1)N1CC(=O)N2[C@H](CO)[C@@H](c3ccc(C#CC4CC4)cc3)[C@H]2C1
1.0	-4.9	6.1	COc1ccc(CN(C)C[C@H]2Oc3ccc(NC(=O)Nc4ccc5c(c4)OCO5)cc3CC(=O)N([C@H](C)CO)C[C@H]2C)cc1
1.5	6.6	-3.2	O=C(C[C@@H]1C[C@@H]2c3cc(NC(=O)C4CCC4)ccc3O[C@@H]2[C@H](CO)O1)NC1CCCCC1
-5.1	-3.3	-2.5	CO[C@@H]1CC[C@H]2CCOc3ccc(C#N)cc3C(=O)N(C)C[C@@H](c3ccccc3)CC(=O)N(C)C[C@@H]1O2
1.3	3.9	-0.3	CNC(=O)C[C@@H]1CC[C@H]2[C@H](COc3ccc(NC(=O)c4ccc5c(c4)OCO5)cc3C(=O)N2C)O1
-1.3	-3.0	0.9	CCN1[C@@H]2c3ccc(/C=C/c4ccccc4)c(=O)n3C[C@@H]2[C@@H](CO)[C@@H]1C(=O)N(C)C
4.0	10.4	4.2	Cc1ccccc1S(=O)(=O)N1C[C@H]2[C@H]3C(=O)N(C4CCCCC4)C(=O)[C@H]3CC(=O)[C@H]2[C@@H]1c1ccc(Cl)cc1
1.8	4.0	-0.2	CC(C)NC(=O)Nc1cccc2c1O[C@H](CN(C)Cc1ccc3c(c1)OCO3)[C@H](C)CN([C@H](C)CO)C2=O
5.1	13.4	-0.1	CN(C)CC#Cc1ccc([C@@H]2[C@H](CO)N3CCCCN(CC4CC4)C[C@@H]23)cc1
0.2	4.7	-1.6	CC(C)NC(=O)Nc1cccc2c1O[C@@H](CN(C)S(=O)(=O)c1ccccc1)[C@H](C)CN([C@@H](C)CO)C2=O
-2.7	-20.1	-2.1	CCCNC(=O)N(C)C[C@@H]1Oc2cc(-c3ccccc3F)ccc2S(=O)(=O)N([C@@H](C)CO)C[C@H]1C
-0.5	-0.1	-1.4	COc1cccc(-c2ccc3n(c2=O)C[C@@H]2[C@@H](CO)[C@H](C(=O)NC4CCC4)[C@H]3N2C)c1
-2.7	0.0	0.5	COc1ccc(S(=O)(=O)Nc2ccc3c(c2)C(=O)N([C@@H](C)CO)C[C@H](C)[C@@H](CN(C)Cc2ccc(C(=O)Nc4ccccc4N)cc2)O3)cc1
3.3	6.6	-0.8	CCC(=O)N(C)C[C@@H]1Oc2ncc(-c3ccc(C(=O)N(C)C)cc3)cc2C(=O)N([C@H](C)CO)C[C@H]1C
1.4	-0.6	0.0	CC(C)NC(=O)N(C)C[C@@H]1OCCCC[C@H](C)Oc2ccc(NC(=O)CCC(F)(F)F)cc2C(=O)N([C@H](C)CO)C[C@H]1C
-0.8	1.9	0.1	CS(=O)(=O)Nc1ccc2c(c1)[C@@H]1C[C@@H](CC(=O)NCc3cccc(F)c3)O[C@@H](CO)[C@@H]1O2
-3.2	10.2	-2.9	CCN1C(=O)[C@H]2[C@@H](c3ccc(C)cc3)N[C@]3(CCCN(Cc4cccn4C)C3=O)[C@H]2C1=O
-3.3	-6.5	-2.2	CCCNC(=O)[C@@H]1[C@@H](CO)[C@@H]2Cn3c(ccc(-c4ccccc4F)c3=O)[C@H]1N2CC1CC1

Bioassay records as filed in PubChem BioAssay.
